GALR2 ag: GALR2 (human) receptor agonism; O43603; GALR2-expressing cells, agonist activation read-out; activation, %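 (tested at 5 µM)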; 140,000 tested, 0.48% active;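 active = above mean plus 3 SD of all compounds, about 5% in these data, not always enough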;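 also: 0% = vehicle buffer wells and 100% = reference agonist at full effect; tested in CHO reporter cells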
Target sequence (O43603 whole entry, looked up): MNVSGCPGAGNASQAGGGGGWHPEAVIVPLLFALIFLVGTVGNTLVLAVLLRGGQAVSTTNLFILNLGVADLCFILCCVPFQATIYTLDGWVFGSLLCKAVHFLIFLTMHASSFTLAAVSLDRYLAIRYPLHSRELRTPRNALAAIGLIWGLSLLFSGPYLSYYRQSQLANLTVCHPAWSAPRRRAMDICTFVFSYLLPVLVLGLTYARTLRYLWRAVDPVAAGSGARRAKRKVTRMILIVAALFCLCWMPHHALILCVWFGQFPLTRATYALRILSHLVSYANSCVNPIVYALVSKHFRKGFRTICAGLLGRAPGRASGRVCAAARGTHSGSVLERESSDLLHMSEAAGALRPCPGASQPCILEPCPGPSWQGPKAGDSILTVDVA
PKD1 kinase inh: blocks activity of human protein kinase D1; Q15139; PKD1 kinase fluorescence polarization assay; inhibition, %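 (about 10 µM by stock and volumes)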; 200,000 tested, 0.056% active; AID 797;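 active = inhibition of 50% or more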;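 also: controls were vehicle for no effect and a reference inhibitor for full effect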
Insulin prom inh: TRM-6 insulin promoter activity inhibition | TRM-6 cells (human fetal islet line), insulin promoter-eGFP reporter, imaging; reporter expression induced with tamoxifen | inhibition, % at 2 µM | 130,000 tested, 0.9% active | AID 1273;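 active = inhibition above the mean plus 3 SD, with well images judged a real hit on visual review, cut at about 60% in these data, passing the limit was not always enough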
HSV augment: HSV replication enhancement. HSV replication augmentation in cells, fold increase. maximum fold increase. 220,000 tested, 0.005% active;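 active = peak rise of 1.5-fold or more in the series; tested in PC3 cells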;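 also: first round at 10 µM; read as green reporter fluorescence; hits show the peak of a series up to 25 µM; 1 = signal of infected wells without compound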
RGS16-Gao: regulators of human RGS16-Galphao interaction; bead-based flow cytometry RGS16-Galphao binding, fluorescence; actives lie on both sides; binding response (% of control), % at 10 µM; 220,000 tested, 0.38% active; AID 1441;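 active = below 25% or above 175%, edge rows of some plates excepted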;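 also: Galphao activated by GDP with aluminum fluoride before binding; 100% = wells without compound and 0% = beads without RGS; some results beyond the cut were filed as inactive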
Target sequence (O15492 whole entry, looked up): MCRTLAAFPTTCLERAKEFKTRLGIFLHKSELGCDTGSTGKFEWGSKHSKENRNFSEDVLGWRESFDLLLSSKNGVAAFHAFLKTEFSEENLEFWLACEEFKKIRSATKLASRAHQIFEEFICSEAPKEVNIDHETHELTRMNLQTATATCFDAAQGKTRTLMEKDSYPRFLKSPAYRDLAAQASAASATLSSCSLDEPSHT
Target sequence (P09471 whole entry, looked up): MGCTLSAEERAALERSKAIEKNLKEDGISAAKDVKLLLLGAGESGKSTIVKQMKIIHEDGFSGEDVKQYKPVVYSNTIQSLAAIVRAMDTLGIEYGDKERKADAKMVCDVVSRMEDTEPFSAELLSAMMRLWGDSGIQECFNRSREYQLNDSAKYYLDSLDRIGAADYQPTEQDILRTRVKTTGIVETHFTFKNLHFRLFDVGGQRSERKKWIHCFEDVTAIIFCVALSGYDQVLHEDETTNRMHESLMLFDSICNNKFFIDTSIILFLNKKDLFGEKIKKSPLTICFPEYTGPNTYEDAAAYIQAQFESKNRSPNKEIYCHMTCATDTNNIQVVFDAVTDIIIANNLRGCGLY
Insulin prom inh cell count: also measured in Insulin prom inh; calls as there; normalized cell count, %; measured here: cell count, toxicity; reference of the scale not given here;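 cells exposed to compound for 48 h; stained nuclei by imaging scaled within each plate; lower means fewer cells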
HSV augment primary fold: further read-out of HSV augment, marked with its call; fold increase; compound at 10 µM; measured here: primary screen fold increase 10 uM; tested in PC3 cells;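 GFP signal in the first replicate; 1 = infected wells without compound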
Active calls of the source: *. Outcome played no part in choosing rows; 1.3% or so of the library scored in one or more.

For CC(C)(C)NC(=O)C(c1ccc(O)cc1)N(C(=O)CCC(=O)Nc1nccs1)c1cccc(F)c1 (stereo not given) the results were PKD1 kinase inh 5, Insulin prom inh 13, HSV augment inactive, RGS16-Gao 102, Insulin prom inh cell count 99 and HSV augment primary fold 0.85.
`COCn1c(-c2ccc(OC)c(OC)c2)nc2ccccc21` gave GALR2 ag -1.1, PKD1 kinase inh 5, HSV augment inactive, RGS16-Gao 96 and HSV augment primary fold 0.91.
`Cc1ccc(-c2noc(CNc3ccccc3)n2)cc1` gave GALR2 ag -1.9, PKD1 kinase inh -4, Insulin prom inh -29, HSV augment inactive, RGS16-Gao 106, Insulin prom inh cell count 178 and HSV augment primary fold 0.92.
O=C(OCCN1C(=O)c2cccc3c(N4CCOCC4)ccc(c23)C1=O)c1ccccc1Cl was read as GALR2 ag -0.6, PKD1 kinase inh -10, Insulin prom inh 14, RGS16-Gao 60 and Insulin prom inh cell count 72.
Screening COc1cc2[nH]c(C(=O)NN)c(N)c2cc1OC returned HSV augment inactive, RGS16-Gao 101 and HSV augment primary fold 0.99.
`COc1ccc(N/C=C/c2nc(SC)nnc2C)cc1` gave PKD1 kinase inh 3, HSV augment inactive, RGS16-Gao 99 and HSV augment primary fold 1.1.
`Cc1nn(-c2ccccc2)c(Cl)c1C1C(C#N)=C(N)OC2=C1C(=O)CC(C)(C)C2` (stereo not given) gave GALR2 ag -1.4, PKD1 kinase inh -1, Insulin prom inh 67, HSV augment inactive, RGS16-Gao 149, Insulin prom inh cell count 126 and HSV augment primary fold 0.77.
Screening CCO/N=C(/C)c1c(O)c(C)c(-c2ccccc2)n(-c2ccccc2)c1=O returned GALR2 ag -1.4, PKD1 kinase inh -7, Insulin prom inh 58, HSV augment inactive, RGS16-Gao 105, Insulin prom inh cell count 131 and HSV augment primary fold 0.94.
COc1cc(C2C(C#N)=C(N)Oc3c2oc(CO)cc3=O)ccc1OC(C)C (stereo not given) was read as GALR2 ag -1.8, PKD1 kinase inh -9, HSV augment inactive, RGS16-Gao 81 and HSV augment primary fold 1.
N#CC1=C(N)SC(N)=C(C#N)C1c1cccc(O)c1 was read as GALR2 ag -2.0, PKD1 kinase inh -5, Insulin prom inh 0, HSV augment inactive, RGS16-Gao 94, Insulin prom inh cell count 134 and HSV augment primary fold 1.2.
For Cc1oc(-c2ccccc2)cc1C(=O)NC(Cc1c[nH]c2ccccc12)C(=O)O (stereo not given) the results were GALR2 ag -1.2, PKD1 kinase inh 10, Insulin prom inh -3, HSV augment inactive, RGS16-Gao 102, Insulin prom inh cell count 126 and HSV augment primary fold 0.99.
`Cc1ccc(-n2c(SCC(=O)N3CCOCC3)nnc2-c2cccnc2)cc1` gave GALR2 ag -1.2, PKD1 kinase inh -3, Insulin prom inh -3, HSV augment inactive, RGS16-Gao 100, Insulin prom inh cell count 49 and HSV augment primary fold 1.
Screening CCOC(=O)N1CCN(CC(=O)Nc2sccc2C#N)CC1 returned PKD1 kinase inh -8, Insulin prom inh 17, HSV augment inactive, RGS16-Gao 45, Insulin prom inh cell count 44 and HSV augment primary fold 1.
For CCCCOc1ccc(/C=C/C(=O)Nc2ccc([N+](=O)[O-])cc2C)cc1 the results were GALR2 ag -1.3, PKD1 kinase inh 1, HSV augment inactive, RGS16-Gao 107 and HSV augment primary fold 0.94.
Screening O=C1c2ccccc2NC(c2cccc(O)c2)N1NS(=O)(=O)c1ccccc1 (stereo not given) returned PKD1 kinase inh 3, Insulin prom inh -39, HSV augment inactive, RGS16-Gao 93, Insulin prom inh cell count 96 and HSV augment primary fold 0.96.
CCc1ccccc1NC(=O)N1CCC(NC(=O)C(Cc2ccc(OC)c(OC)c2)NC(C)=O)CC1 (stereo not given) was read as GALR2 ag -2.0, PKD1 kinase inh 1, Insulin prom inh 49, HSV augment inactive, RGS16-Gao 100, Insulin prom inh cell count 100 and HSV augment primary fold 0.75.
N/C(CN1CCCC1=O)=N\OC(=O)c1ccccc1Cl was read as GALR2 ag 0.0, PKD1 kinase inh 10, Insulin prom inh -30, HSV augment inactive, RGS16-Gao 110, Insulin prom inh cell count 152 and HSV augment primary fold 0.75.
Screening CNCc1nc2ccccc2[nH]1 returned PKD1 kinase inh -3, HSV augment inactive, RGS16-Gao 106 and HSV augment primary fold 1.
For CCOc1ccc(N(CC(=O)NCCc2ccc(OC)cc2)S(C)(=O)=O)cc1 the results were PKD1 kinase inh 1, HSV augment inactive, RGS16-Gao 105 and HSV augment primary fold 0.97.
COc1ccccc1C(=O)NNC(=O)c1cccc(F)c1 was read as GALR2 ag -0.4, PKD1 kinase inh 4, Insulin prom inh -46, HSV augment inactive, RGS16-Gao 94, Insulin prom inh cell count 99 and HSV augment primary fold 1.

Among those listed so far, these contain an aryl thioether with sulfur outside any ring:
`COc1ccc(N/C=C/c2nc(SC)nnc2C)cc1` gave PKD1 kinase inh 3, HSV augment inactive, RGS16-Gao 99 and HSV augment primary fold 1.1.
`Cc1ccc(-n2c(SCC(=O)N3CCOCC3)nnc2-c2cccnc2)cc1` gave GALR2 ag -1.2, PKD1 kinase inh -3, Insulin prom inh -3, HSV augment inactive, RGS16-Gao 100, Insulin prom inh cell count 49 and HSV augment primary fold 1.

Returning to the listing; the 2 compounds before the break are reprinted first.
For CCOc1ccc(N(CC(=O)NCCc2ccc(OC)cc2)S(C)(=O)=O)cc1 the results were PKD1 kinase inh 1, HSV augment inactive, RGS16-Gao 105 and HSV augment primary fold 0.97.
COc1ccccc1C(=O)NNC(=O)c1cccc(F)c1 was read as GALR2 ag -0.4, PKD1 kinase inh 4, Insulin prom inh -46, HSV augment inactive, RGS16-Gao 94, Insulin prom inh cell count 99 and HSV augment primary fold 1.
`CCC(C)C(=O)Nc1nnc(-c2cccs2)s1` (stereo not given) gave GALR2 ag -2.0, PKD1 kinase inh -5, HSV augment inactive, RGS16-Gao 105 and HSV augment primary fold 0.93.
Screening CN1/C(=C\C(=O)C[n+]2ccc(C(=O)c3ccccc3)cc2)C(C)(C)c2ccccc21 returned PKD1 kinase inh -7, HSV augment inactive, RGS16-Gao 96 and HSV augment primary fold 1.
For N#Cc1sc2nc3c(cc2c1N)CCCC3 the results were GALR2 ag -0.3, PKD1 kinase inh 30, HSV augment inactive, RGS16-Gao 80 and HSV augment primary fold 1.
Screening O=C(CCCc1nc2ccccc2s1)Nc1ccccc1 returned PKD1 kinase inh -4, Insulin prom inh -8, RGS16-Gao 103 and Insulin prom inh cell count 154.
`Cc1ccc(S(=O)CCNC(=O)Cc2ccc(Cl)cc2)cc1` (stereo not given) gave PKD1 kinase inh 11, Insulin prom inh -72, HSV augment inactive, RGS16-Gao 101, Insulin prom inh cell count 84 and HSV augment primary fold 0.96.
Screening CCN(CC)C(=O)CSc1nnc(-c2ccc(O)cc2)n1CC1CCCO1 (stereo not given) returned GALR2 ag -2.4, PKD1 kinase inh -3, HSV augment inactive, RGS16-Gao 104 and HSV augment primary fold 0.93.
CC(=O)Nc1ccc(NC(=O)COc2cccc3c2OC(C)(C)C3)cc1 was read as PKD1 kinase inh -8, Insulin prom inh 0, RGS16-Gao 97 and Insulin prom inh cell count 109.
For CCc1ccc(NC(=O)CCn2cccc2)cc1 the results were GALR2 ag -3.2, PKD1 kinase inh -2, Insulin prom inh 18, HSV augment inactive, RGS16-Gao 80, Insulin prom inh cell count 118 and HSV augment primary fold 0.89.
For CCCn1c(SCC(=O)NC(C)(C)C)nnc1C(C)C the results were GALR2 ag -1.6, PKD1 kinase inh 1, Insulin prom inh 46, HSV augment inactive, RGS16-Gao 93, Insulin prom inh cell count 114 and HSV augment primary fold 1.
`CCC(OC(=O)C1=Cc2ccccc2OC1)C(=O)NCc1ccco1` (stereo not given) gave PKD1 kinase inh 2, HSV augment inactive, RGS16-Gao 100 and HSV augment primary fold 0.92.
CCc1nn2cc(C(=O)c3ccccc3O)cnc2c1-c1ccc(F)cc1 was read as GALR2 ag -0.4, PKD1 kinase inh 5, Insulin prom inh 45, HSV augment inactive, RGS16-Gao 106, Insulin prom inh cell count 133 and HSV augment primary fold 0.87.
For Cc1sc2nc(SCC(=O)N3CCCC3)[nH]c(=O)c2c1C the results were GALR2 ag -1.7, PKD1 kinase inh -4, HSV augment inactive, RGS16-Gao 106 and HSV augment primary fold 0.91.
Cc1cc(C)n(CC(O)CN(c2ccccc2)S(=O)(=O)c2ccccc2)n1 (stereo not given) was read as GALR2 ag -1.6, PKD1 kinase inh -15, Insulin prom inh -23, HSV augment inactive, RGS16-Gao 116, Insulin prom inh cell count 76 and HSV augment primary fold 1.
For N#CCCn1ccc(NC(=O)c2ccc(Cl)cc2)n1 the results were GALR2 ag -0.3, PKD1 kinase inh -3, Insulin prom inh 61, HSV augment inactive, RGS16-Gao 88, Insulin prom inh cell count 112 and HSV augment primary fold 0.9.
`S=C(NC1CCCCC1)N(CCc1ccccc1)CCc1ccccc1` gave GALR2 ag -1.4, PKD1 kinase inh -9, HSV augment inactive, RGS16-Gao 99 and HSV augment primary fold 1.1.
`COc1ccc(OCC(=O)Sc2ccc(C)cc2)cc1` gave GALR2 ag -2.4, PKD1 kinase inh -8, Insulin prom inh 23, HSV augment inactive, RGS16-Gao 87, Insulin prom inh cell count 102 and HSV augment primary fold 0.99.
Screening O=C(CN1C(=O)CCC1=O)Nc1cccc(NC(=O)CN2C(=O)CCC2=O)c1 returned PKD1 kinase inh 0, HSV augment inactive, RGS16-Gao 96 and HSV augment primary fold 1.
COc1ccc(-c2cc3ccccc3n2CC(O)CN2CCN(CCO)CC2)cc1 (stereo not given) was read as GALR2 ag -2.0, PKD1 kinase inh -14, HSV augment inactive, RGS16-Gao 91 and HSV augment primary fold 0.82.
`Cc1cc(=O)c2ccccc2n1CC(=O)NCc1ccccc1` gave GALR2 ag -0.1, PKD1 kinase inh -8, Insulin prom inh 37, HSV augment inactive, RGS16-Gao 111, Insulin prom inh cell count 165 and HSV augment primary fold 0.87.
Cc1ccc(C2=NNC(=Nc3ccc(F)cc3)SC2)cc1 was read as PKD1 kinase inh -10, HSV augment inactive, RGS16-Gao 105 and HSV augment primary fold 0.82.
For COc1cccc(-c2nc(CS(=O)(=O)CC(=O)NCc3ccc(Cl)cc3)c(C)o2)c1 the results were GALR2 ag -1.7, PKD1 kinase inh 5, HSV augment inactive, RGS16-Gao 107 and HSV augment primary fold 0.87.
Screening Clc1ccc(-c2cc(COc3ccccc3)no2)cc1Cl returned GALR2 ag -3.3, PKD1 kinase inh 3 and RGS16-Gao 102.
Screening CC(=O)NCCOc1cccc2cccnc12 returned GALR2 ag 0.1, PKD1 kinase inh 2, HSV augment inactive, RGS16-Gao 100 and HSV augment primary fold 0.87.
Screening COc1cc(/C=N/NC(=O)Cc2nnc(N)s2)cc(OC)c1OC returned HSV augment inactive, RGS16-Gao 103 and HSV augment primary fold 1.1.
For CCOC(=O)c1ccc(NC(=O)C(C)NS(=O)(=O)c2ccc(OC)cc2)cc1 (stereo not given) the results were GALR2 ag -1.0, PKD1 kinase inh -1, Insulin prom inh -39, HSV augment inactive, RGS16-Gao 101, Insulin prom inh cell count 201 and HSV augment primary fold 0.82.
C/C(=N\O)C(C)(C)Nc1ccc(Cl)cc1 was read as HSV augment inactive, RGS16-Gao 99 and HSV augment primary fold 1.1.
For S=C1NNC2(NN1)C1CC3CC(C1)CC2C3 the results were GALR2 ag -2.3, PKD1 kinase inh -4, Insulin prom inh 56, HSV augment inactive, RGS16-Gao 103, Insulin prom inh cell count 84 and HSV augment primary fold 1.1.
Cc1cc([N+](=O)[O-])ccc1NC(=S)NC(=O)C(c1ccccc1)c1ccccc1 was read as GALR2 ag 0.2, PKD1 kinase inh -1, Insulin prom inh -44, HSV augment inactive, RGS16-Gao 96, Insulin prom inh cell count 69 and HSV augment primary fold 0.96.

Assay outcomes (PubChem BioAssay)
